Screening results as filed in PubChem BioAssay.
H5N1 antiviral – MDCK cell protection from H5N1 avian flu; cytopathic effect, luminescence, 72 h; stronger effect = higher value; no value below 0 was filed and about half of the inactive calls have no number; reference of the scale not given here; inhibition, % at 50 µM; 96,000 compounds, 0.07% hits; AID 740, 2007; in the data active means inhibition above about 25%
Starred values were filed as active, the others as inactive; i = inactive. Some of the compounds tested. The share of hits here may be higher or lower than overall.

SMILES	H5N1 antiviral
O[C@@H]1C2CCCC1[C@]1(O)CCCCC1C2 (some centres not stated)	0.7
O=C(C1CC1)N1CCc2cc(S(=O)(=O)N3CCCc4ccccc43)ccc21	0.2
CCOc1ccc(NC(=O)CS(=O)(=O)c2cn(CC)c3ccccc23)cc1	1.4
Cc1sc(NC(=S)NC(=O)c2cccs2)nc1-c1ccc(C(C)C)cc1	i
Cn1cc(CNC(=O)COc2ccc(Cl)cc2Cl)cn1	0.7
COc1ccc(/C=C/C(=O)Nc2sc3c(c2C(=O)NCc2cccnc2)CCCC3)cc1	i
Cn1nc(-c2ccc(OCC(=O)Nc3ccccc3)cc2)c2ccccc2c1=O	i
CCC(c1nnnn1C1CCCC1)N(Cc1cccs1)Cc1cc2cc(C)ccc2[nH]c1=O (configuration not stated)	i
Cc1cc(NC(=O)CN2C(=O)NC(C)(c3ccc(OC(F)F)cc3)C2=O)no1 (configuration not stated)	0.1
O=C(COc1ccc(N2CC(C(=O)O)CC2=O)cc1)Nc1cccc(C(F)(F)F)c1 (configuration not stated)	0.1
O=C(O)COc1ccc(S(=O)(=O)c2ccc(OCC(=O)O)cc2)cc1	0.5
Cc1cccc(NC(=O)c2c(O)c3cccc4c3n(c2=O)CCC4)n1	i
Cc1sc2ncnc(SCC(=O)N3CCN(C(=O)c4ccco4)CC3)c2c1C	0.5
COc1ccc(-n2c(SCC(=O)N3CCCCC3C)nnc2-c2cccnc2)cc1 (configuration not stated)	0.8
Cn1c(Cn2c(=O)sc3ccccc32)nnc1SCC(=O)Nc1ccc(Cl)cc1	0.0
CCCCn1nc2cc(C(=O)NCC34CC5CC(CC(C5)C3)C4)ccc2c1OCC	0.1
CC(C)n1c(SCC(N)=O)nc2c1c(=O)n(C)c(=O)n2C	0.1
Cc1ccc(C(=O)C(OC(=O)CNS(=O)(=O)c2ccccc2)c2ccccc2)cc1 (configuration not stated)	2.6
O=C(CSc1nc2ccc(Cl)cc2o1)NCc1ccc2c(c1)OCO2	0.3
CCn1c(SCC(=O)Nc2ccc3c(c2)c2ccccc2n3CC)nnc1-c1ccco1	i

Compounds shown so far with a halogen (5):
SMILES	H5N1 antiviral
Cn1cc(CNC(=O)COc2ccc(Cl)cc2Cl)cn1	0.7
Cc1cc(NC(=O)CN2C(=O)NC(C)(c3ccc(OC(F)F)cc3)C2=O)no1 (configuration not stated)	0.1
O=C(COc1ccc(N2CC(C(=O)O)CC2=O)cc1)Nc1cccc(C(F)(F)F)c1 (configuration not stated)	0.1
Cn1c(Cn2c(=O)sc3ccccc32)nnc1SCC(=O)Nc1ccc(Cl)cc1	0.0
O=C(CSc1nc2ccc(Cl)cc2o1)NCc1ccc2c(c1)OCO2	0.3

Next structures follow:
SMILES	H5N1 antiviral
COc1ccc(N2CCN(C(=O)c3cccc(N4C(=O)C5CC=CC(C)C5C4=O)c3)CC2)cc1 (configuration not stated)	0.3
COc1cccc(C2CC(c3cccc(Br)c3)n3ncnc3N2)c1 (configuration not stated)	i
CC(C)=CC(=O)OCC(=O)Nc1ccccc1Cl	i
O=C(O)CNS(=O)(=O)c1ccc(F)cc1	0.5
Cc1ccc(CS(=O)(=O)Cc2ccc(C(=O)NCCCN3CCOCC3)o2)cc1	0.3
CN1CCN(C(=O)c2ccc3c(c2)NC(=O)C(C)(C)O3)CC1	i
CCn1cc(C(=O)NCCCOC(C)C)c2cc(OC)c(OC)cc2c1=O	i
COCc1cc(Sc2ccc(Cl)cc2Cl)nc(-c2ccccc2)n1	3.6
O=c1oc2c(Cl)cc(Cl)cc2cc1-c1nnc(Nc2ccccc2F)s1	i
Cc1ccc(O)c(C(=O)c2cnn(-c3ccccc3)c2)c1	i
CSc1nc(C)c2c(c1C#N)CCCC2	0.0
Cc1cc(C)c([N+](=O)[O-])cc1-c1ccc(/C=N/c2c(-c3ccco3)nc3ccccn23)o1	i
O=C(Cn1cnc2c(cnn2-c2ccc(Cl)cc2)c1=O)NCC1CCCO1 (configuration not stated)	i
CC(C)Oc1cccc(NC(=O)c2cccn(Cc3ccc4c(c3)OC(F)(F)O4)c2=O)c1	i
CC(Oc1ccc(C(=O)NCCc2ccccc2)cc1)C(=O)O (configuration not stated)	i
Cc1ccc2c(c1)c1nc3ccccc3nc1n2CCN1CCOCC1	i
Cc1cccc(NC(=O)CSc2ncnc3nc[nH]c23)c1C	1.5
CN(C)c1ccc(N=Cc2nc(-c3ccccc3)oc2O)cc1	i
CCOC(=O)C(Cc1ccccc1)NC(=O)CCc1c(C)nc2ncnn2c1C (configuration not stated)	1.0
Nc1nonc1C(=Nc1ccc(Br)cc1)NO	i

3 entries out of the list, arranged by SMILES length, smallest number first.
SMILES	H5N1 antiviral
O=c1oc2c(Cl)cc(Cl)cc2cc1-c1nnc(Nc2ccccc2F)s1	i
O=C(Cn1cnc2c(cnn2-c2ccc(Cl)cc2)c1=O)NCC1CCCO1 (configuration not stated)	i
CC(C)Oc1cccc(NC(=O)c2cccn(Cc3ccc4c(c3)OC(F)(F)O4)c2=O)c1	i

Next section
SMILES	H5N1 antiviral
CC(=O)Nn1cc2c(=O)n(C)c(=O)n(C)c2c1	0.9
COCCCN1C(=O)C(O)=C(C(=O)c2ccco2)C1c1ccccc1 (configuration not stated)	0.6
N#Cc1ccccc1CSc1nc(O)cc(=O)[nH]1	i
Cc1nn(Cc2ccccc2Cl)c(C)c1NC(=O)c1noc2c1CCCCC2	0.3
O=C(NC1CCCc2ccccc21)c1ccc(CNc2c(N3CCOCC3)c(=O)c2=O)cc1 (configuration not stated)	i
COC(=O)c1ccccc1NC(=O)N1CCCC1	0.3
CCOc1cc(C2C(C(=O)OC)=C(C)N=C3SC(C)C(=O)N32)ccc1OC(C)=O (configuration not stated)	0.0
c1ccc(-n2ncc3c(NCc4cccs4)ncnc32)cc1	i
O=C(C1CC(=O)N(c2ccccc2)C1)N1CCN(C2=NS(=O)(=O)c3ccccc32)CC1 (configuration not stated)	i
COc1ccc2[nH]c(C)c(C(=O)CN3CCc4cc(OC)c(OC)cc4C3)c2c1	i
CCOC(=O)c1c(C)n(-c2ccc(OC)cc2)c2c(C/C(C)=N/O)c(Br)c(OC)c(O)c12	i
CSc1nc(-c2ccccc2)nc(N2CCCC2)c1C(C)=O	0.4
Cc1ccc(Sc2nc(-c3ccccc3)nnc2C(F)(F)F)cc1	i
N#Cc1ccc(CSc2nnc(-c3cnccn3)o2)cc1	1.7
c1ccc(N2CCN(CCc3nnc4n3CCCCC4)CC2)cc1	i
O=C1C2CC=CCC2C(=O)N1c1cccc(OS(=O)(=O)c2ccc3ccccc3c2)c1 (configuration not stated)	i
COc1ccc(-c2[nH]ncc2-c2ccc(Cl)cc2)c(O)c1	i
COCCn1c(=S)[nH]c2cc(C(=O)N3CCc4ccccc43)ccc2c1=O	2.8
N#Cc1c(N)[nH]c(=S)c(C#N)c1-c1ccccc1	i
COc1ccccc1-c1c(C)oc2cc(OC(=O)c3ccco3)ccc2c1=O	0.2
COC(=O)c1ccccc1NC(=O)CSc1nnnn1-c1ccc(C)cc1C	6.1
CCOc1nc2ccccc2nc1NS(=O)(=O)c1ccccc1	1.8
COc1ccc(N2CCN(S(=O)(=O)c3cccc(C(F)(F)F)c3)CC2)cc1	0.4
CCOc1ccc(C2CC(=O)NC3=C2C(=O)CCC3)cc1Cl (configuration not stated)	i
COCCCNC(=O)CCCn1c(=O)[nH]c2ccccc2c1=O	i
COC(=O)c1ccc2c(=O)n(CC3CCCO3)c(SCC(=O)Nc3ccccc3Cl)nc2c1 (configuration not stated)	0.4
Cc1ccc(NC(=O)Nc2nc(-c3ccc(C)s3)cs2)cc1	i
O=C(CN1CCN(c2nc(-c3ccccc3)cs2)CC1)NCc1ccc2c(c1)OCO2	0.9
CCc1ccc(CNCCSc2nnnn2C)cc1	i
CCOC(=O)N(CC)c1ccc(C(O)(C(=O)OC)C(F)(F)F)cc1 (configuration not stated)	0.4
CCOC(=O)c1sc(=S)n(-c2cc(F)ccc2F)c1N	i
O=C(Nc1cccc(C(F)(F)F)c1)c1ccc2nc(-c3ccco3)c(-c3ccco3)nc2c1	0.9
CCOC(=O)c1sc(NC(=O)CSc2nc(C)cc(-c3ccccc3)n2)c(C#N)c1C	2.3
Cc1cc(C(=O)NCc2ccccc2)c(=O)[nH]c1C	i
CC1CCN(c2c(NCC3CCC(C(=O)N4CCc5ccccc5C4)CC3)c(=O)c2=O)CC1 (configuration not stated)	0.5
COC(=O)C1=C(C)N(CCC2=CCCCC2)C(=O)C1	0.4
CCOc1ccc(S(=O)(=O)NCCSCc2ccco2)cc1	0.6
O=C(Cn1c(SCC(=O)NC2CCCC2)nnc1-c1ccncc1)Nc1ccc2c(c1)OCO2	i
CCC(CC)C(=O)NCCc1cc2cc(C)c(C)cc2[nH]c1=O	2.1
CCOC(=O)c1[nH]c(C)c(C(=O)C(C)C)c1C	0.5
Cc1cc(-c2ccccc2)nc(N2CCN(c3ccccn3)CC2)n1	i
CCn1cc(C(=O)NC(=S)Nc2cccc(O)c2)cn1	0.1
CN1/C(=C\C(=O)C(F)F)C(C)(C)c2ccccc21	i
O=C1CCC(/C=C/c2ccccc2)=NN1Cc1ccccc1Cl	i
Cc1ccc(N(CC(=O)N2CCOCC2)S(C)(=O)=O)cc1C	i
Cc1ccc(CNC(=O)C2c3ccccc3C(=O)N3CCc4ccccc4C23)o1 (configuration not stated)	i
O=C(COc1ncnc2ccc(Br)cc12)Nc1ccc(N2CCOCC2)cc1	2.3
O=C(NCc1ccc(F)cc1)C(c1ccncc1)N(C(=O)c1csnn1)C1CC1 (configuration not stated)	0.1
Cc1cccc(C(=O)NCCN(C)C)c1	1.1
Cc1cccc[n+]1CC(=O)Nc1ccc([N+](=O)[O-])cc1Cl	i
COc1ccc(-c2nnn(CC(=O)NCCc3c[nH]c4ccccc34)n2)cc1OC	1.5
CCc1ccc(-c2cc(C(=O)N3N=C(C(F)F)CC3(O)C(F)F)c3ccccc3n2)cc1 (configuration not stated)	1.2
COc1ccc(S(=O)(=O)n2nc(-c3ccc(Cl)cc3)cc2N)cc1OC	0.2
COc1ccc(S(=O)(=O)N2CCN(c3ccc(C)cc3C)CC2)cc1OC	1.0
CCCCSc1nnc2nc(C)cc(C)n12	i
O=C(N/N=C/c1cccc([N+](=O)[O-])c1)c1ccc2c(c1)OCCO2	i
C=C(C)c1cccc(C(C)(C)NC(=O)N2CCC(C)CC2)c1	i
CCOC(=O)N1CCN(C(=O)c2ccc3c(c2)NC(=O)C(N2CCOCC2)S3)CC1 (configuration not stated)	i
C=C(C)c1nc(N)nc(N)n1	14
CCN(CC)C(=O)C1CCN(CC2CC=CCC2)CC1 (configuration not stated)	i

Further records
SMILES	H5N1 antiviral
CC1CCCCN1Cc1c(C#N)c2ccccc2n1C (configuration not stated)	i
CCOc1ccc(OCC)c(NC(=O)CN2CCN(c3cc(C)ccc3C)CC2)c1	i
Cc1n[nH]c(=O)nc1NC(C)c1ccccc1 (configuration not stated)	i
Cc1ccccc1NS(=O)(=O)c1ccc(NC(=O)c2nc3ncccn3n2)cc1	0.1
CC(C)Cn1c(-c2csc3c2CCCC3)n[nH]c1=S	0.6
CC(C)NC(=O)CCS(=O)(=O)c1ccc(Br)s1	i
O=C(c1csc2c1CCCC2)N1CCN(c2ncccn2)CC1	0.3
COc1nc(OC)nc(N2CCC(C(=O)Nc3cccc4c3CCCC4)CC2)n1	0.2
CCOC(=O)CN1C(=O)SC(CC(=O)Nc2nccs2)C1=O (configuration not stated)	0.3
Cc1nn(-c2cc(Cl)ccc2N)c(=O)c2ccccc12	0.1
CCn1c(SCCN2CCCCC2)nnc1-c1ccc(S(=O)(=O)N2CCOCC2)cc1	0.6
CCCNC(=O)C(=O)c1cccn1-c1ccsc1C(=O)OC	i
O=C(CSc1ccsc1[N+](=O)[O-])NCCc1ccccc1	1.4
COC(=O)c1cc(Br)c(=O)n(-c2ccc(OC)cc2)c1	0.6
C=CCn1c(COc2ccccc2)nnc1SCC(=O)N/N=C/c1ccc(C)cc1	0.2
CN(C)c1nc(Oc2ccc(C(=O)OCC(=O)Nc3ccccc3)cc2)nc(N(C)C)n1	i
CC1CC(C)CN(C(=O)COC(=O)CNS(=O)(=O)/C=C/c2ccccc2)C1 (configuration not stated)	i
c1ccc(Cn2nnnc2C(c2ccccn2)N2CCOCC2)cc1 (configuration not stated)	1.3
COC(=O)Nc1nc(C)c(C(=O)N(C)C)s1	0.0
Cc1cc(Br)ccc1NC(=O)CNC(=O)CN(C)Cc1nc2ccccc2c(=O)[nH]1	0.7

The closing two entries of the part above lead into the next:
SMILES	H5N1 antiviral
COC(=O)Nc1nc(C)c(C(=O)N(C)C)s1	0.0
Cc1cc(Br)ccc1NC(=O)CNC(=O)CN(C)Cc1nc2ccccc2c(=O)[nH]1	0.7
CCN(CC)S(=O)(=O)c1ccc(S(=O)(=O)N(Cc2ccccn2)Cc2ccco2)cc1	i
CSc1ccccc1NC(=O)CN(Cc1ccc(Cl)cc1)S(C)(=O)=O	1.0
Cc1cc(C)cc(OCC(=O)NCc2nc(-c3ccccc3)no2)c1	i
Cc1ccc2nc(NCc3ccco3)c(C=NCc3ccco3)c(=O)n2c1	0.7
Clc1ccc(Oc2nnnn2-c2ccccc2)cc1	0.3
CCCC(=O)N1c2ccc(-c3csc(N)n3)cc2CC1C (configuration not stated)	i
Cc1nc(N2CCOCC2)nc2c1CCCC2	0.1
Cc1ccc(CSc2nc3ccncc3[nH]2)cc1	i
CC#CCCCC(=O)Nc1ccccc1C(=O)O	0.2
O=C(CSc1nnc(-c2cccs2)n1Cc1ccco1)c1ccc2c(c1)OCO2	i
O=C(Nc1ccc(F)cc1)N(CCCN1CCOCC1)Cc1cc2cc3c(cc2[nH]c1=O)OCCO3	2.9
CCOC(=O)N1CCN(C(=O)CS(=O)(=O)Cc2nc(-c3ccccc3C)oc2C)CC1	i
O=C(NC1CCCCC1)C(c1ccc(Cl)cc1)N(C(=O)c1cnccn1)c1ccc2c(c1)OCO2 (configuration not stated)	i
COc1ccc(-c2noc(CCCc3ccccc3)n2)cc1OC	i
Cc1nc2ccccc2c2oc(C(=O)NCCN3CCN(C)CC3)cc12	2.5
CCC(C)(C)N1CC(=O)N(Cc2ccccc2)C(c2ccc(OC)cc2)C1=O (configuration not stated)	1.8
O=C(COC(=O)C1CCN(C(=O)c2ccc(Cl)cc2)CC1)c1ccco1	2.9
CCOc1ccc(Cl)cc1CNCCNCCO	i
